# S aureus helic = blocks Staphylococcus aureus DNA helicase; purified S. aureus helicase, fluorescence unwinding assay; about half of the hits fall short of the stated cut; inhibition, %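 (tested at about 80 µM)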; 120,000 compounds, 0.05% hits;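 active means both duplicates at 50% or more, or one of them with a favoured structure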;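 further: 0% = mean of negative control wells and 100% = mean of positive control wells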
# MgrA-DNA mod = alters Staphylococcus aureus MgrA binding to DNA. 84,000 compounds, 0.13% hits. fluorescence polarization. inhibition, %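 (about 10 µg/mL by stock and volumes)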;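 active means above 50% in either of two replicates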;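 further: 0% = protein plus DNA without compound and 100% = DNA alone without protein; higher means less MgrA bound to DNA so lower polarization; one replicate is shown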
# Active calls of the source: *; nt = no result given.
# Preview:
S aureus helic	MgrA-DNA mod	smiles
10	-0.1	O=P(O)(Cc1ccccc1)c1ccccc1
5	7.4	CN(C(=O)CSc1nc2ccccc2[nH]1)c1ccccc1
-10	nt	Cc1ccc(C)c(NC(=O)Cc2nc(CN3CCOCC3)cs2)c1
nt	1.9	CCOC(=O)C1=C(C)NC(=S)NC1c1ccccc1 (stereo unspecified)

# Main list, repeating the preview:
S aureus helic	MgrA-DNA mod	smiles
10	-0.1	O=P(O)(Cc1ccccc1)c1ccccc1
5	7.4	CN(C(=O)CSc1nc2ccccc2[nH]1)c1ccccc1
-10	nt	Cc1ccc(C)c(NC(=O)Cc2nc(CN3CCOCC3)cs2)c1
nt	1.9	CCOC(=O)C1=C(C)NC(=S)NC1c1ccccc1 (stereo unspecified)
2	nt	c1coc(C2=Nc3cccc4cccc(c34)N2)c1
4	nt	NC(=O)c1cc(Br)c(O)c(Br)c1
24	nt	Cc1onc(-c2ccccc2)c1N1C(=O)CCN(Cc2ccccc2)C1=O
0	-1.4	CCN(CC)C(=O)c1cc(-c2ccco2)nc2ccccc12
-10	nt	Cc1cc(NC(=O)CSc2ncnc3sc(C)c(C)c23)n(-c2ccccc2)n1
nt	0.1	NCCCC(N)CC(=O)NC1CNC(=O)C(C2CC(O)N=C(N)N2)NC(=O)/C(=C/NC(N)=O)NC(=O)C(CO)NC(=O)C(CO)NC1=O (stereo unspecified)

# Sorted by the number under S aureus helic (highest first): three from the list above
canonical_smiles	S aureus helic
c1coc(C2=Nc3cccc4cccc(c34)N2)c1	2
CCN(CC)C(=O)c1cc(-c2ccco2)nc2ccccc12	0
Cc1ccc(C)c(NC(=O)Cc2nc(CN3CCOCC3)cs2)c1	-10

# The list continues:
S aureus helic	MgrA-DNA mod	smiles
-2	-1.6	CCCn1c(-c2ccc(N)cc2)nc2ccccc21
-20	nt	COc1cc(C2=Nc3c(c(C)nn3-c3ccccc3)P(=O)(N3CCOCC3)O2)cc(OC)c1OC (stereo unspecified)
8	nt	CC(C)(C)OC(=O)CSc1nc2ccccc2n1CCC#N
6	nt	Cc1ccc(C(=O)N2CCN(S(=O)(=O)c3ccc(F)cc3)CC2)s1
-6	-2.3	Cn1c2ccccc2c2nnc(SCc3ccc(F)cc3Cl)nc21
nt	1.2	Cn1c(N2C(=O)c3cccc4cccc(c34)C2=O)nc2ccccc21
nt	-3.5	CCOC(=O)c1c(NC(C)=O)nc(SC)n1Cc1ccco1
40	nt	COc1ccc(CC(=O)Nc2ccc3c(c2)OCO3)cc1S(=O)(=O)N1CCOCC1
20	-6.3	N#CCCN1CCN(Cc2cc(-c3ccccc3)ccc2O)CC1
-6	2.6	CCOC(=O)COc1c(Cl)cc(/C=C2/N=C(c3ccco3)OC2=O)cc1OCC
3	0.3	Cc1ccc(C2C(NC(=O)c3ccc(F)cc3)C([O-])=N/[N+]2=C\c2ccc(N(C)C)cc2)cc1 (stereo unspecified)
1	-5.4	CCOc1ccc(S(=O)(=O)n2cccn2)cc1
nt	-1.7	CC(C)N(C(=O)NC(=O)c1csnn1)C(C)C
-21	-0.3	CNc1ccccc1C(C)(C)c1cc(-c2cccnc2)n[nH]1
-13	1.5	CCCCC1CC1C(=O)Nc1ccccc1C#N (stereo unspecified)
8	0.9	c1ccc(Cn2ccc3ccccc32)cc1
-7	-0.8	Clc1ccc(-c2cc(-n3cnc4ccccc43)n[nH]2)cc1
-14	nt	COCCn1c(C)cc(/C=C(\C#N)C(=O)OCCN2C(=O)c3ccccc3C2=O)c1C
5	nt	CCc1nnsc1C(=O)Nc1cc(OC)ccc1OC
16	nt	COCC(C)n1c(C)cc(C2=NNC(=Nc3ccc(F)cc3F)SC2)c1C (stereo unspecified)
8	nt	O=C(c1cccnc1)N1CCN(C/C=C/c2ccccc2)CC1
12	1.1	CC1(C)Cc2c(sc3ncn4nc(CSc5nc6ccccc6o5)nc4c23)C(C)(C)N1
6	-1.2	O=C(CCCc1c[nH]c2ccccc12)NC1=NCCS1
0	nt	S=C=NC12CC3CC(CC(C3)C1)C2
-11	nt	CC(=O)NCc1ccc(C(=O)CSc2nnc(-c3ccncc3)n2Cc2ccccc2)o1
-9	nt	CC(OC(=O)c1c(Cl)cccc1Cl)C(=O)NC1CC1 (stereo unspecified)
5	nt	COc1ccc(-c2cn3c(C)c(C(=O)Nc4ccc5c(c4)OCCO5)sc3n2)cc1
nt	-4.9	CCCS(=O)(=O)/C(C#N)=C/Nc1ncccn1
nt	0.4	CCc1ccc(C(=O)N(Cc2ccccc2)C(C)C)cc1
nt	0.1	CCOC(=O)c1c(NC(=O)C2COc3ccccc3O2)sc(C)c1C (stereo unspecified)
10	nt	O=C1CSC2=NCN(c3ccc(-c4ccccc4)cc3)CN12
4	nt	CCCCN1C(SCC(=O)NCCC)=NS(=O)(=O)c2ccccc21
-4	nt	CSc1ccc(CN(C)CC(=O)NC(=O)NC2CCCCC2)cc1
18	nt	O=C(O)c1[nH]c2ccccc2c1CC(=O)N1CCCCC1
2	1.4	O=S(=O)(NCc1ccc2c(c1)OCO2)c1cccc2nsnc12
9	4.7	COc1cccc2sc(=NC(=O)c3ccccc3)n(C)c12
-4	-1.6	COC(=O)c1ccc(NC(=O)Cc2ccc(F)cc2)cc1
3	1.0	C=CCN(C(=O)c1cc2c(-c3ccc(OC)c(OC)c3)nn(C)c2s1)c1ccccc1
nt	-1.4	S=c1[nH]nc(CSc2nc(-c3ccccc3)cn2-c2ccccc2)n1-c1ccccc1
14	nt	Cc1noc(C)c1COC(=O)/C=C/c1ccco1
nt	0.4	CCN[C@H]1C[C@H](C)S(=O)(=O)c2sc(S(N)(=O)=O)cc21
nt	-2.1	COC(=O)C(Cc1c[nH]c2ccccc12)NC(=O)c1cc(C)no1 (stereo unspecified)
14	nt	CC1(C)CC(=O)C(C2C3=C(CC(C)(C)CC3=O)OC3=C2C(=O)CC(C)(C)C3)=C(O)C1
14	3.5	CN(C(=O)c1cc2sccc2n1Cc1ccc(F)cc1)C1CCCCC1
3	3.0	CC1SC(=S)N(c2ccccc2)C1=O (stereo unspecified)
1	-0.6	CCOC(=O)c1cccc(Nc2nc(C)cc(C)n2)c1
16	1.6	CC1CN(C(=O)C(c2ccccc2)c2ccccc2)CC(C)O1 (stereo unspecified)
1	nt	Cc1noc(C)c1COC(=O)c1cc(S(=O)(=O)N(C)c2ccc(F)cc2)ccc1Cl
17	nt	Cc1ccc(-c2noc(CCC(=O)N3CCCCC3c3nc4ccccc4s3)n2)cc1 (stereo unspecified)
18	nt	COc1ccc(-c2cn3cccnc3n2)cc1NC(C)=O

# (more compounds)
S aureus helic	MgrA-DNA mod	smiles
-13	2.3	COc1cc(CO)ccc1OCc1ccccc1C
-5	nt	CCN(c1ccc(OC)cc1)S(=O)(=O)c1ccc2c(c1)OCC(C(=O)N1CCCC1)O2 (stereo unspecified)
nt	-0.5	CCOC(=O)c1sc(/S(C)=N/S(=O)(=O)c2cccc(Cl)c2)c2c1CCC=C2 (stereo unspecified)
19	nt	O=C(O)Cc1ccccc1C(=O)O
11	-0.1	CC1CCN(CCn2c(=S)[nH]c3ccccc3c2=O)CC1
4	nt	CCOc1cc(OCC)c2c3c(c(=O)oc2c1)CCC3
-3	-0.9	Cc1ccc(C(=O)Nc2nncs2)cc1
3	1.1	Cc1ccc(N2C(=O)CC(Cc3ccccc3)C2=O)cc1 (stereo unspecified)
9	2.5	CCOC(=O)c1c(COC(C)=O)n(C)c2cc(Br)c(OC)cc12
-5	nt	O=C1CC(c2nnc(Cc3ccc4c(c3)OCO4)o2)CN1c1ccccc1 (stereo unspecified)
-3	-0.5	COc1ccc(NC(=O)CCCn2c(=S)[nH]c3ccccc3c2=O)cc1
-2	nt	O=C1Cc2cc(C(=O)CSc3nnc(-c4cccs4)n3CC3CCCO3)ccc2N1 (stereo unspecified)
-19	nt	CN1C(C(=O)N2CCN(C(=O)c3ccco3)CC2)=CC(c2ccc(F)cc2)=NS1(=O)=O
6	-1.8	CC(C)(C)NC(=O)NCc1nc(-c2ccccc2)no1
nt	-0.6	N/C(=N\OC(=O)c1ccc([N+](=O)[O-])cc1)c1cccc(-n2cccc2)c1
4	-17	CCc1cccc(-n2c(-c3ccco3)nc3c(cnn3-c3ccccc3Cl)c2=O)c1
nt	1.5	NC(=O)c1ccc(-c2ccccc2F)cc1
nt	2.8	CCCc1c(OCc2ccccc2)ccc(C(C)=O)c1O
4	nt	CCc1ccc(S(=O)(=O)NCCN2CCN(S(=O)(=O)c3ccc(CC)cc3)CC2)cc1
-6	2.9	CCC(C)n1nc(NC(C)=O)c2cc3cc(C)ccc3nc21 (stereo unspecified)
nt	0.1	CC1(C)CC(=O)C2=C(C1)OC1=C(C(=O)CC(C)(C)C1)C2c1ccc(F)cc1F
6	4.5	COc1ccc2[nH]c(O)c(N=O)c2c1
19	nt	CCn1c(SCC(=O)Nc2ccnn2C2CCCC2)nc2cc(S(N)(=O)=O)ccc21
8	nt	S=C1SCN(C2CCCCC2)CN1Cc1ccccc1
-11	nt	O=C1CCCC(O)=C1N=Nc1ccc(S(=O)(=O)N2CCOCC2)cc1
19	25	CN(C)C(=S)Nc1nc2ccccc2s1
-11	nt	N#C/C(=C\c1ccc[nH]1)C(=O)NCCc1ccccn1
18	-2.0	Cc1ccc(S(=O)(=O)NC(=O)C(C)O)c(C)c1 (stereo unspecified)
-8	1.1	COc1ccc(NC(=O)C(C)Sc2nc(C)cc(=O)[nH]2)cc1 (stereo unspecified)
-15	-2.1	Oc1cccc(Nc2nc(-c3ccc(F)cc3F)cs2)c1
11	0.9	CN1CCC2(CC1)C(C#N)=C(N)Oc1n[nH]c(C(=O)OC(C)(C)C)c12
-14	nt	CC(NS(=O)(=O)/C=C/c1ccccc1)C(=O)N1CCN(c2ccccc2Cl)CC1 (stereo unspecified)
-16	nt	Cc1cc(C)n(-c2nnc(C)n2/N=C/c2cc(Br)ccc2OCc2ccccc2)n1
nt	-1.2	N#CCCOc1ccc2ccccc2c1
13	-1.0	O=c1[nH]c2ccc(Cl)cc2c(-c2ccccc2)c1-[n+]1ccccc1
3	2.5	O=C(CCCc1ccccc1)Nc1cccc(-c2nn[nH]n2)c1
5	nt	Cc1ccc(S(=O)(=O)c2nc(NC3CCS(=O)(=O)C3)sc2Cl)cc1 (stereo unspecified)
5	nt	CCOC(=O)c1[nH]c(C)c(C(=O)N(CC)C2CCCCC2)c1C
12	nt	Cc1cccc(OCC(O)CN2CC(C)CC(C)C2)c1 (stereo unspecified)
nt	4.7	CN(N=O)C(=O)N[C@@H]1[C@@H](O)[C@H](O)[C@@H](CO)O[C@@H]1O

# An excerpt from above in order of length of the SMILES, rising.
S aureus helic	MgrA-DNA mod	smiles
nt	-1.2	N#CCCOc1ccc2ccccc2c1
5	nt	CCOC(=O)c1[nH]c(C)c(C(=O)N(CC)C2CCCCC2)c1C
11	0.9	CN1CCC2(CC1)C(C#N)=C(N)Oc1n[nH]c(C(=O)OC(C)(C)C)c12

# Other entries
S aureus helic	MgrA-DNA mod	smiles
-18	nt	COc1ccc(OC)c(/C=C/C(=O)N(Cc2cccs2)Cc2cccs2)c1
-2	nt	CCCC1=C(C(=O)OCC)C(c2ccccc2OC)NC(=O)N1 (stereo unspecified)
-3	nt	Nc1cc(-c2ccc(Br)cc2)no1
1	-31	O=C(CN1CCC(n2nnc3ccccc32)CC1)N(C1CCCCC1)C1CCCCC1
22	nt	NC(=O)c1c(NC(=O)C2=COCCO2)sc2c1CCCC2
14	nt	COc1ccc(/C=N/n2ncc3ccccc32)cc1
9	2.3	COc1ccc(C2/C(=C(\O)c3ccccc3)C(=O)C(=O)N2CCN2CCOCC2)cc1 (stereo unspecified)
12	-8.4	OC1(C#CCN2CCCCC2)c2ccccc2C2CCCC21 (stereo unspecified)
14	4.0	CC(NC(=O)NC1(c2ccccc2)CC1)C12CC3CC(CC(C3)C1)C2 (stereo unspecified)
23	nt	O=S(=O)(NC1CCCCC1)c1ccc(-c2cc(C(F)(F)F)no2)s1
0	nt	Cc1cc(C)nc(SCc2nc3ncccn3c2Br)n1
0	0.0	Cc1ccc(C(=O)NCc2ccccc2)cc1
4	-0.8	O=S(=O)(c1ccc2ccccc2c1)N1CCOCC1
39	nt	Cc1nn(CCC#N)c2nc(-c3ccc(F)cc3)cc(C(=O)O)c12
1	-6.4	CC1=C(C(=O)Nc2ccccc2)C(c2ccc(C(C)C)cc2)n2c(nc3ccccc32)N1 (stereo unspecified)
16	nt	CCC(CC)C(=O)Nc1nnc(-c2ccccc2)s1
3	2.2	Cc1c(C(=O)Oc2cccc3cccnc23)oc2ccccc12
-6	1.4	COc1ccc(-c2noc(CN(Cc3ccco3)S(C)(=O)=O)n2)cc1
nt	-2.1	O=C1c2cccc3cccc(c23)C(=O)N1CCCN1CCOCC1
nt	0.0	O=C1CC(=Nc2ccc(F)cc2)NN1
6	nt	CC(C)[C@H](NC(=O)c1cc2ccccc2o1)c1nc2ccccc2[nH]1
8	nt	CC1(C)CC(NC(=O)Cn2nc(-c3ccccc3)c3ccccc3c2=O)CC(C)(C)N1
1	-0.6	CCOC(=O)CN(c1ccccc1)C1SC(=O)N(Cc2cccc(C(=O)O)c2)C1=O (stereo unspecified)
-13	nt	CC1C2=C(CC(C)(C)CC2=O)OC2=C1C(=O)CC(C)(C)C2
-20	nt	O=C(O)COCC(=O)NC1CCCCNC1=O (stereo unspecified)
24	nt	C=CCn1c(SCc2cc(=O)[nH]c(C34CC5CC(CC(C5)C3)C4)n2)n[nH]c1=O
nt	-3.5	Cc1cc(Nc2ccc(F)c(Cl)c2)nc(N)n1
12	1.4	O=S(=O)(Nc1nc2ccc(S(=O)(=O)N3CCCCC3)cc2s1)c1ccccc1
25	8.9	CC1CCN(C(=S)c2ccc(O)cc2)CC1
6	1.1	CCN(Cc1nnc(-c2ccccc2C)o1)c1ccccc1

# Source: PubChem BioAssay

# The list is partial; rates above refer to the full screens.
